Mtb hypoxia inh – PubChem AID 1159583. fluorescence inhibition, % (concentration not given with the values). M. tuberculosis hypoxia-regulated fluorescent reporter, fluorescence. actives 0.1% (n = 300,000);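 active = 35 to 45% if threefold the growth effect, above 45% if 1.5-fold the growth effect; inactive = the rest, general growth blockers included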;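 note: wells of about 50 µL received 100 nL stock; 0% = vehicle wells and 100% = reference inhibitor wells; whole bacteria with a GFP reporter of the hypoxia response; strong numbers were not always called active; many hits fall short of the cut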
Sa ugtP lethal – growth inhibition of ugtP-null S. aureus, primary screen, RN4220 ugtP deletion, OD600; 16 h; some inactives read as strong as hits; growth inhibition, % (test concentration not listed); actives 0.54% (n = 330,000); AID 1259309, 2017;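 active = z-score under -3 and OD600 up to 0.15 on both plates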;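 note: plate controls were untreated wells for no effect and antibiotic for full effect; wells of about 80 µL received 100 nL stock; the first replicate is given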
Bead autofluor – flagged as autofluorescent in microsphere protease counterscreen; compound autofluorescence counterscreen, microsphere flow cytometry; active compounds read high; fluorescence intensity (concentration not given with the values); actives 3.1% (n = 360,000); AID 624483;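 active = at least 3 SD above the mean of all compounds, about 16000 in these data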;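 note: 100 nL of 1 mM stock went into each well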
BJeLR viability – MLPCN primary cell-based screen for lethality selective to Ras in HRASV12 cells; actives 0.17% (n = 300,000); inhibition, % (concentration not given with the values); AID 1554, 2009; BJeLR (HRASV12) viability, CellTiter-Glo ATP luminescence, 48 h; reference of the scale not given here;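 active = replicate mean above 50%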;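 note: 50 nL library stock added to about 25 µL; numbers are from one replicate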
RN4220 kill – growth inhibition of S. aureus RN4220, primary screen, OD600; 16 h; inhibition, % (concentration not given with the values); actives 0.33% (n = 330,000); AID 1259311, 2017;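 active = z-score of -3 or lower and OD600 up to 0.18 on both plates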;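 note: plate controls were untreated cells for no effect and reference antibiotic for full effect; stock transfer was 100 nL into about 80 µL; one replicate is shown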
PrP UTR inh – inhibition of PrP 5' UTR reporter expression. AID 488862, 2010. inhibition, % (no concentration beside the values). actives 0.35% (n = 340,000). cell-based PrP 5' UTR mRNA reporter, plate reader;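 active = every replicate at 50% or more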;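 note: 0 = median of the neutral control wells; tested in H4 reporter cells; numbers are from one replicate; inactives centre near -14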
Mtb hypoxia inh growth – recorded beside Mtb hypoxia inh, whose call it bears; growth inhibition, %; measured here: M. tuberculosis growth (absorbance);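 0% = vehicle and 100% = reference antibiotic; read after six days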
Starred values were filed as active, the others as inactive; nt = no result given.

compound	Mtb hypoxia inh	Mtb hypoxia inh growth	Sa ugtP lethal	Bead autofluor	BJeLR viability	RN4220 kill	PrP UTR inh
O=C(CN1c2cccc3cccc(c23)S1(=O)=O)N1CCCCC1	0	3	4	6988	nt	4.5	-19
C/C(N)=C(/C#N)C(=O)COC(=O)CSc1ccc2ccccc2c1	1	1	-7	10582	8	6.6	-28
CNN=C(Cc1nc2ccccc2[nH]1)c1ccc([N+](=O)[O-])cc1	-19	-4	-6	nt	nt	-0.9	nt
CCOc1ccc(C(=O)c2ccc([N+](=O)[O-])cc2Cl)cc1	13	7	1	3823	-4	8.7	1
COc1ccccc1NS(=O)(=O)c1cc(NC(=O)CN2C(=O)NC3(CCCCC3)C2=O)ccc1C	9	7	4	3553	nt	1.9	-16
O=C(NCC1CCCO1)C(c1ccc(F)cc1)N(CC1CCCO1)C(=O)c1ccc(-c2ccccc2)[nH]1 (configuration not stated)	7	11	12	3316	-7	4.9	-23
Nc1cc(C(=O)OCC(=O)NCC2CCCO2)ccc1Cl (configuration not stated)	10	20	4	3885	2	2.4	-5
Cc1cccc(N(C)C(=O)COc2cc(=O)n(C)c3ccccc23)c1	nt	nt	-12	5241	-14	2.1	-15
O=C(CNC(=O)c1cccnc1)NN=Cc1ccc(O)cc1O	14	-2	-2	nt	nt	0.1	nt
CN(Cc1c(C(=O)N/N=C/c2ccccc2)nnn1-c1nonc1N)C1CCCCC1	nt	nt	nt	5801	-1	nt	-5
COc1cc(C(=O)NN=Cc2ccc3c(c2)c2ccccc2n3C)ccc1O	13	5	86*	nt	nt	91*	nt
N#Cc1ccsc1NC(=O)CN1C(=O)NC2(CCCCC2)C1=O	2	-4	7	4408	5	4.4	3
CCOc1ccc(Br)cc1S(=O)(=O)NC(=O)c1ccccc1	8	5	0	3840	4	4.8	-28
CCC(=O)c1ccc(OCc2ccc(C(=O)OC)cc2)c(OC)c1	nt	nt	-5	2861	1	2.8	-14
COC(=O)CC1=NN(c2nc(C)cc(C)n2)C(=O)C1	10	16	4	3988	16	3.2	-20
CC(C)c1ccc(NC(=S)NN(c2ccccc2)c2ccccc2)cc1	10	7	-2	7174	-6	-2.6	-25
CC1(C)CC(=O)C(C(N)=NC(=O)c2ccccc2)=C(O)C1	-2	-1	21	3848	3	9.5	-31
COc1cccc(OC)c1C(=O)Nc1ccccc1C(=O)N1CCOCC1	5	7	1	10485	0	2.5	-5
Cc1cc(C)cc(N(CC(=O)NCC2CCCO2)C(=O)CCC(=O)Nc2nccs2)c1 (configuration not stated)	-2	-1	1	3466	4	-4.2	-8
CC1=NN(C(=O)Cc2ccc([N+](=O)[O-])cc2)C(O)(C(F)(F)C(F)(F)F)C1 (configuration not stated)	8	1	-3	5846	5	2.8	-13

Part of the list above, with two lines to a compound:
Below each SMILES: Mtb hypoxia inh | Mtb hypoxia inh growth | Sa ugtP lethal | Bead autofluor | BJeLR viability | RN4220 kill | PrP UTR inh
> Cc1cccc(N(C)C(=O)COc2cc(=O)n(C)c3ccccc23)c1
→ nt | nt | -12 | 5241 | -14 | 2.1 | -15
> COc1cccc(OC)c1C(=O)Nc1ccccc1C(=O)N1CCOCC1
→ 5 | 7 | 1 | 10485 | 0 | 2.5 | -5

Not a retest: 2 of the compounds above.
compound	Mtb hypoxia inh	Mtb hypoxia inh growth	Sa ugtP lethal	Bead autofluor	BJeLR viability	RN4220 kill	PrP UTR inh
O=C(CN1c2cccc3cccc(c23)S1(=O)=O)N1CCCCC1	0	3	4	6988	nt	4.5	-19
C/C(N)=C(/C#N)C(=O)COC(=O)CSc1ccc2ccccc2c1	1	1	-7	10582	8	6.6	-28

Continuation:
compound	Mtb hypoxia inh	Mtb hypoxia inh growth	Sa ugtP lethal	Bead autofluor	BJeLR viability	RN4220 kill	PrP UTR inh
CCC(C)[C@H]1CNCCN1CCc1cc(C(F)(F)F)cc(C(F)(F)F)c1 (some centres not stated)	nt	nt	nt	3181	3	nt	-1
CCN=C(NCC)SC1CC(=O)N(c2ccc(F)cc2)C1=O (configuration not stated)	nt	nt	3	6301	10	1.1	-28
CCCCn1nnnc1SCC(=O)Nc1ccc2c(c1)OCO2	nt	nt	7	5719	1	5.4	-10
CC(=O)Nc1ccc(C(=O)CCl)cc1	17	13	14	4187	nt	30	-12
O=C(CN1CCCc2ccccc21)N/N=C/c1ccccc1O	nt	nt	nt	2646	-2	nt	-7
Cc1cccc(NC2=NC3(CCCCC3)N=C(N)N2)c1C	nt	nt	-1	5518	-8	-3.2	2
CC1CCCC(NC(=O)CN2C(=O)NC(C)(c3cc(F)ccc3F)C2=O)C1C (configuration not stated)	13	18	8	3727	nt	4.5	-20
CC[n+]1c(/C=C/Nc2ccccc2)oc2ccccc21	5	13	-2	4441	2	-4.4	-25
COc1ccc(C2CC(c3ccccc3)=NN2C(=O)c2ccc(F)cc2)cc1 (configuration not stated)	9	-6	9	4047	-6	0.9	-40
CCN(CC)CC(=O)NCC1(c2ccccc2)CCOCC1	nt	nt	7	4790	0	3.7	-15
C(=N\Nc1nc(N2CCCCC2)nc(N2CCCCC2)n1)/c1c[nH]c2ccccc12	nt	nt	nt	2781	-8	nt	-13
COC(=O)C1C(O)=C(C(C)=Nc2cccc3ccccc23)C(=O)CC1(C)C (configuration not stated)	-7	-13	3	5664	-2	-3.1	-7
Cc1cc(NC(=O)CCC(=O)N(CCC(C)C)C(C(=O)NC2CCCC2)c2ccccc2C)no1 (configuration not stated)	-3	3	-6	3690	3	4.0	-16
O=C(O)c1ccc(COc2ccc3ccccc3c2/C=C2/NC(=O)N(Cc3ccc(F)cc3)C2=O)cc1	-6	-5	39	4343	nt	50	-4
COc1ccc(CC(=O)Nc2ccc(C(=O)Nc3nccs3)cc2)cc1OC	-4	-1	1	4218	-2	-3.0	-6
C#CCOCCOCCOCCNc1nc(N2CCOCC2)nc(N2CCN(C(=O)CCCCCCCCCCNC(=O)C(CCC(=O)O)n3cc(CCCCCN)nn3)CC2)n1 (configuration not stated)	10	8	5	nt	nt	7.4	nt
CC(=O)c1ccc(Nc2cc(C)nc3c(C)cc(C)cc23)cc1	2	20	7	4177	13	1.9	18
CC(=O)c1c(C)[nH]c(C(=O)CSc2nnc(-c3ccccc3)n2Cc2ccc3c(c2)OCO3)c1C	nt	nt	-5	2088	11	6.1	-13
COc1cc(/C=N/O)cc(Br)c1OCc1ccc(Cl)cc1	nt	nt	nt	3996	-6	nt	-48
CCOC(=O)Nc1ccc2c(c1)N(C(=O)CNC)c1ccccc1CC2	-4	13	7	3361	-1	3.8	-17
N#Cc1c(Cn2cncn2)nc(=O)n(-c2ccc(Cl)cc2)c1N	6	13	-4	4695	-1	1.9	-25
O=C(CCc1c[nH]c2ccccc12)NCc1ccco1	11	5	0	4909	9	9.2	-14
c1ccc(C2CC(=NN3CCOCC3)c3ccccc3O2)cc1 (configuration not stated)	-1	2	11	nt	nt	1.5	nt
Cc1ccc(C=Nn2c(C)cc(C)c(C#N)c2=O)o1	2	5	1	nt	nt	2.2	nt
COc1ccc(C(=O)/C=C/c2ccc(N(C)C)cc2)c(OC)c1	-42	5	6	4935	12	1.4	-19
CC(C)(C)NC(=O)CCC1COc2ccccc2O1 (configuration not stated)	13	6	12	10772	-10	5.0	-32
Cc1cc(S(=O)(=O)N2CCOCC2)ccc1OCC(=O)NCCCn1ccnc1	6	-3	10	3031	-5	1.6	-21
O=C(COc1ccc(Cl)cc1)NCCS(=O)(=O)N1CCN(c2ccc(F)cc2)CC1	-6	-4	0	5815	8	0.7	3
CC(C)(O)C(=O)N=Nc1c(O)[nH]c2ccccc12	5	2	-3	4662	-1	6.3	-51
CCOC(=O)N1CCN(Cc2nc3c(c(=O)n(C)c(=O)n3C)n2Cc2ccc(F)cc2)CC1	-9	2	-8	6488	-9	-5.7	-20
O=C(c1ccco1)N1CCN(C(=O)c2ccc(-c3ccc(Cl)cc3)o2)CC1	10	5	-2	7732	nt	2.1	-26
Fc1ccc(-c2cnn3c(-c4cccs4)ccnc23)cc1	2	11	3	2563	-3	3.9	-43
CCOC(=O)/C=c1\s/c(=C\c2ccc3c(c2)OCCO3)c(=O)n1CC(=O)NCC1CCCO1 (configuration not stated)	nt	nt	nt	4707	-2	nt	-8
Cc1c(C(=O)NCCN(C)C)oc2ccc(S(=O)(=O)N3CCC4(CC3)OCCO4)cc12	0	6	2	5778	-14	0.2	4
Cc1ccc(Cl)cc1N1CCN(C(=O)C2CCC(=O)N(C3CCCCCC3)C2)CC1 (configuration not stated)	-3	-5	4	4331	6	0.8	-2
O=C(C1CCCCC1)N(CCN1CCCC1)c1nc2ccccc2s1	-1	5	3	11901	-14	2.1	-26
OCCC1CN(Cc2nc3c(s2)CCCC3)CCN1Cc1ccsc1 (configuration not stated)	8	8	8	4412	-11	0.9	-9
Cc1cccc(OCc2nnc(SCC(=O)c3cccs3)n2C)c1C	2	3	-14	11293	-15	8.2	-31
O=C(c1cnn2c(C(F)(F)F)cc(-c3ccco3)nc12)N1CCCCCC1	nt	nt	6	2584	8	0.2	3
CC(=O)c1ccc(OCCCC(=O)NC2CCCCC2C)cc1 (configuration not stated)	-2	3	8	4111	-7	-0.3	-19
CSc1ccccc1C(=O)NC1CCCC1	1	2	3	15581	5	-4.0	-21
CS(=O)(=O)c1nc(S(=O)(=O)c2ccc(Cl)cc2)c(NCCCN2CCOCC2)s1	-6	-9	13	4389	-9	2.7	-27
Cc1nc2ccc(C(C(F)(F)F)(C(F)(F)F)C(F)(F)F)cc2[nH]1	nt	nt	-3	2812	20	1.7	-58
Cc1ccccc1C(=O)NCCNC(=O)c1ccccn1	4	-10	8	3124	5	-2.1	-19
COc1ccc(-n2cnnc2SCC(=O)NC2CCCCC2)cc1	10	8	13	6615	nt	4.4	-1
Cc1cccc(NC(=O)CCC(=O)NN=Cc2ccco2)c1C	-4	2	1	nt	nt	-1.6	nt
COc1ccc(CN2C(=NC(=O)C3CC3)SC3CS(=O)(=O)CC32)cc1 (configuration not stated)	3	2	0	5561	-5	0.9	-20
CC(C)NC(=O)Nc1cccc2c1OC(CN(C)S(=O)(=O)c1ccccc1)C(C)CN(C(C)CO)C2=O (configuration not stated)	4	4	17	nt	nt	7.9	nt
CCN(CC)C(=O)c1ccc(NC(=O)COc2ccccc2F)cc1	8	4	4	3196	-5	5.4	-7
O=C(NC12CC3CC(CC(C3)C1)C2)C12CC3CC(C1)CC(n1cnc(Cl)n1)(C3)C2	nt	nt	6	3827	1	2.3	-7
CC(=O)Nc1ccc(C(=O)OCC(=O)N(c2ccccc2)C2CCS(=O)(=O)C2)cc1 (configuration not stated)	8	6	12	7567	nt	0.5	-24
CC(C)C(=O)Nc1ccccc1C(=O)OCC(=O)c1ccc2c(c1)OCCO2	8	1	1	2572	-8	2.1	-50
O=C(CSCc1ccc([N+](=O)[O-])cc1)NCCSCc1ccccc1	2	13	-7	3523	-7	-17	-6
O=C(c1ccc([N+](=O)[O-])cc1)n1nc(-c2ccccc2)nc1NCc1ccc(F)cc1	-7	7	-5	2289	-2	1.5	-18
CC(=O)c1cccc(N(CC(=O)O)S(C)(=O)=O)c1	nt	nt	4	3725	-3	0.8	-26
Cc1ccc(CNc2nc(-c3cccs3)nc3ccccc23)cc1	6	0	-31	2614	7	-14	-4
O=C1CSC(=NC(=O)c2ccccc2)N1	0	4	-7	9360	-6	3.3	-6
COc1ccc(Cl)cc1NC(=O)CN(C)CC(=O)Nc1c(C)n(C)n(-c2ccccc2)c1=O	21	34	10	6328	nt	3.3	-23
CCOC(=O)c1sc2nc(C)c([N+](=O)[O-])c(COC)c2c1N	4	8	2	5577	8	12	7
CCc1nnc(NS(=O)(=O)c2ccc(NC(=S)NC(=O)c3ccc(OC)cc3)cc2)s1	11	9	8	7880	15	25	10
COCCNc1oc(-c2ccc(C)cc2)nc1C#N	6	12	4	3191	6	-8.0	-78
Cn1c(N2CCOCC2)nc2c1c(=O)n(Cc1ccc(Cl)c(Cl)c1)c(=O)n2C	nt	nt	-5	4158	nt	-2.9	-4
